Compound activity (PubChem BioAssay)
YopH inh: blocks Yersinia enterocolitica YopH tyrosine phosphatase; AID 898; 0.16% of 140,000 active; fluorescence Ex485/Em525; inhibition, %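 (about 10 µM by stock and volumes)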;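 active = inhibition of 50% or more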;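 also: controls were vehicle for no effect and minimum signal wells for full effect; inactives centre near -20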
RecA intein inh: Mtb RecA intein splicing inhibition | P9WHJ3 | cell-free RecA intein splicing, fluorescence | inhibition, %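 (about 9 µM by stock and volumes)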 | 0.75% of 290,000 active | AID 2221; in the data active = inhibition above about 30%; inconclusive = no clear call, values can overlap the other calls;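 also: 0% = vehicle wells and 100% = reference inhibitor control wells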
Target sequence (P9WHJ3 whole entry, looked up): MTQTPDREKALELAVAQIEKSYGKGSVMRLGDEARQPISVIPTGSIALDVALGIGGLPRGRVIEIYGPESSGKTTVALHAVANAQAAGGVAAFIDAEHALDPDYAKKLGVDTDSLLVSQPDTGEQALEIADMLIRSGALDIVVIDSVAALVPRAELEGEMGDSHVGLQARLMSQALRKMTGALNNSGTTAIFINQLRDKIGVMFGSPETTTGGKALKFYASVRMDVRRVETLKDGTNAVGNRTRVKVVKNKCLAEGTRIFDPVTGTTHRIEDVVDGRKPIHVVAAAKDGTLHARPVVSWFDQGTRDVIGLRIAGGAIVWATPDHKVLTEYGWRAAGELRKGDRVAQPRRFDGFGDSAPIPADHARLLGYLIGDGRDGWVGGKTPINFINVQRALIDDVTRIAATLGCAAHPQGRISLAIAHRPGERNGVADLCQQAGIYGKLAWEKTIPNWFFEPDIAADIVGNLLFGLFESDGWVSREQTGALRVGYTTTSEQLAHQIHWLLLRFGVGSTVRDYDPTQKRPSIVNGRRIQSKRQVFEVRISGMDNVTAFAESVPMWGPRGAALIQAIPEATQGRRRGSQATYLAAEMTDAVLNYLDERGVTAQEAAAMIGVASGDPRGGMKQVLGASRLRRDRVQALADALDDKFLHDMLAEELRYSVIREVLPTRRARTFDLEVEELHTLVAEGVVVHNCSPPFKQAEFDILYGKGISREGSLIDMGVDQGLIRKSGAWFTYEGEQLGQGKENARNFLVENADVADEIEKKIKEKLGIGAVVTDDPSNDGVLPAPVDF
Arbovirus inh: antivirals against arbovirus infection | inhibition, % at 10 µM | 0.37% of 200,000 active | arbovirus infection cell-based antiviral screen;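 active = inhibition from about 30%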;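 also: bluetongue infection of BSR cells; cell survival read as ATP light after 72 h; 0% = infected wells without compound and 100% = uninfected wells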
Mtb betalactam: beta-lactam sensitization of Mtb H37Rv; M. tuberculosis H37Rv growth with meropenem, percent inhibition; hits of this screen are not shown here; inhibition, % at 25 µM; 0.27% of 330,000 active; AID 434955;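 active = about 74% or more and at least 40 points above the plate without the antibiotic, then above 30% in a dose series; inconclusive = first-round hits that could not be retested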;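 also: growth measured after seven days incubation then overnight dye step; 0% = bacteria only wells and 100% = bacteria with antibiotic; twin plates without the antibiotic show which effects depend on it; some results filed as inactive read as strong as hits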
Mtb H37Rv: M. tuberculosis H37Rv growth inhibitors, H37Rv strain (AID 1626); M. tuberculosis H37Rv growth inhibition; higher % means a stronger effect; 0.95% of 220,000 active; inhibition, % at 10 µM; hits with a dose series show IC50 in µM;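 active = confirmed in a dose series; inconclusive = inhibition above 80% but not taken into the dose series; inactive = below 80% or under 30% at every dose of the series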;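 also: bacteria incubated seven days before Alamar blue readout; 0% = bacteria only wells and 100% = bacteria with antibiotic wells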
Arbovirus inh repeat: recorded beside Arbovirus inh, whose call it bears; inhibition, %; measured here: 10K subset replicate screen; many hits read low in the repeat;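 first of two repeat runs on a subset; 0% = infected and 100% = uninfected wells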
Active calls of the source: *; ? = inconclusive; . = no result given. A portion of the library (hit frequency here may not be typical).

SMILES | YopH inh | RecA intein inh | Arbovirus inh | Mtb betalactam | Mtb H37Rv | others
CCOc1cc(/C=C2\C(=O)N(CCc3ccc(OC)c(OC)c3)C(C)=C2C(=O)OC)ccc1O | -19.7 | -0.5 | 3.4 | -0.5 | -2.0%
COc1ccc(OCCCC(=O)OCC(=O)Nc2sccc2C(N)=O)cc1 | . | 1.3 | . | 0.8 | .
COc1cccc(NC(=O)NNS(=O)(=O)c2ccc(OC)cc2OC)c1 | . | 0.4 | . | 2.8 | .
COc1ccc(-c2sc3ccc(OC)cc3c2C#CCCO)cc1 | . | -0.7 | . | 98.8 | .
Cc1nc2ccccc2c(=O)n1-c1cccc([N+](=O)[O-])c1 | . | -1.5 | . | 1.6 | .
O=C(CSc1nnc(C2COc3ccccc3O2)o1)N1CCN(c2ccccc2)CC1 (stereo not given) | . | -5.3 | 8.3 | -4.3 | -8.0%
C/C(CC1CC(C)(C)OC1=O)=N\NC(N)=S (stereo not given) | . | -3.4 | . | -7.5 | -0.6%
Cc1cc(C)n2nc(SCC(=O)NC3CCCCC3C)nc2n1 (stereo not given) | . | -0.2 | . | 3.5 | .
COC(=O)c1ccc(NC(=O)C(=O)N2CCN(C(=S)Nc3cccc(C)c3C)CC2)cc1 | -27.0 | 0.2 | -1.7 | -1.7 | 8.2%
Clc1ccc(-c2nnc(C34CC5CC(CC(C5)C3)C4)o2)cn1 | -12.7 | -2.2 | -8.0 | 3.8 | 12.8%
Cc1csc(N/N=C\c2cccnc2)n1 | . | -2.3 | -4.1 | -9.9 | 5.9%
CCCCC(=O)Nc1cccc(NC(=O)c2ccc3c(c2)OCO3)c1 | -20.0 | 6.5 | -12.8 | 5.7 | 5.8%

Among those listed so far, 2 contain a thiophene ring, fused or not:
SMILES | YopH inh | RecA intein inh | Arbovirus inh | Mtb betalactam | Mtb H37Rv | others
COc1ccc(OCCCC(=O)OCC(=O)Nc2sccc2C(N)=O)cc1 | . | 1.3 | . | 0.8 | .
COc1ccc(-c2sc3ccc(OC)cc3c2C#CCCO)cc1 | . | -0.7 | . | 98.8 | .

Compounds listed so far with an aryl methoxy group:
SMILES | YopH inh | RecA intein inh | Arbovirus inh | Mtb betalactam | Mtb H37Rv | others
CCOc1cc(/C=C2\C(=O)N(CCc3ccc(OC)c(OC)c3)C(C)=C2C(=O)OC)ccc1O | -19.7 | -0.5 | 3.4 | -0.5 | -2.0%
COc1ccc(OCCCC(=O)OCC(=O)Nc2sccc2C(N)=O)cc1 | . | 1.3 | . | 0.8 | .
COc1cccc(NC(=O)NNS(=O)(=O)c2ccc(OC)cc2OC)c1 | . | 0.4 | . | 2.8 | .
COc1ccc(-c2sc3ccc(OC)cc3c2C#CCCO)cc1 | . | -0.7 | . | 98.8 | .

Remaining list, next part
SMILES | YopH inh | RecA intein inh | Arbovirus inh | Mtb betalactam | Mtb H37Rv | others
O=C1COc2ccc(C(=O)COC(=O)Cc3ccc(Cl)cc3)cc2N1 | . | 0.1 | -4.7 | -3.4 | -1.2%
C(=N\n1cnnc1)/c1ccc2c(c1)OCO2 | 5.4 | 0.8 | 4.3 | -1.7 | -22.0%
Cc1ncc(CO)c(/C=N/NC(=O)c2ccc(Br)cc2)c1O | -41.0 | -24.2 | -10.2 | -0.7 | -3.6%
Cc1ccc(SCc2cc(=O)[nH]c(/N=C(\N)Nc3ccccc3Sc3ccccc3)n2)cc1 | -9.8 | 0.3 | -3.5 | -7.9 | 8.9%
CCn1c(=O)c2c(n3c(=S)[nH]nc13)-c1ccccc1CC21CCCCC1 | . | . | -4.0 | -7.0 | -2.7%
CC(=O)c1sc(NC(=O)c2cccc3ccccc23)nc1C | -13.7 | 0.2 | 10.0 | -4.2 | 0.4%
c1cncc(C2CCCCN2)c1 (stereo not given) | . | 0.0 | . | 3.2 | -7.2%
O=C(CSc1nc2ccccc2[nH]1)Nc1ccc(N2CCOCC2)cc1 | . | -1.1 | . | -21.4 | .
COCCCNC(=O)c1cc(C)nn1-c1ccccc1 | . | -0.4 | . | -4.7 | -8.7%
CSc1nc(Cl)cc(N2CCOCC2)n1 | . | 0.6 | 15.0 | -0.7 | 9.8%
Cc1ccc(C(=O)N2CCOCC2)cc1S(=O)(=O)Nc1cccc(C)c1C | -10.3 | 0.4 | 3.2 | -27.3 | -5.2%
COc1ccc(CC(=O)N2CCN(c3ccccc3)CC2)cc1 | . | -0.8 | . | 1.5 | .
CCOC(=O)C(Cc1ccc(O)cc1)NC(=O)CCc1c[nH]c2ccccc12 (stereo not given) | . | 1.7 | . | -5.5 | .
Cc1nc2cc(-c3ccc(F)cc3)[nH]n2c(=O)c1C | . | -0.5 | . | 1.6 | .
Cc1ccc(CN2CCN(CC(=O)N3CCc4ccccc4C3)C2=O)cc1 | 0.2 | 3.8 | 24.8 | -10.6 | 1.2%
O=C(Cn1cnc2c(nnn2Cc2ccc(Cl)cc2)c1=O)c1ccccc1 | . | -9.6 | -3.1 | -4.1 | -5.4%
Cc1c(C(=O)NCc2cccnc2)sc2ncn(CC(=O)N3CCCCC3C)c(=O)c12 (stereo not given) | 36.6 | 4.3 | 3.6 | . | 5.3%
COCC1CCCCN1Cc1cn(-c2ccccc2)nc1-c1ccc2c(c1)OCO2 (stereo not given) | . | 1.4 | -0.9 | 6.2 | -4.2%
COc1ccc(O)c(C(=O)CC(=O)c2ccc(F)cc2)c1 | -52.4 | -0.7 | -9.5 | 93.8 | -1.1%
O=C(/C(=C\c1ccccc1)c1nc2ccccc2[nH]1)c1ccc(Cl)cc1 | -28.4 | 17.5 | -35.5 | 7.8 | -0.2%
COC(=O)c1ccc(NC(C)=O)o1 | -35.3 | -0.2 | 4.9 | -2.1 | 1.6%
O=C(Nc1ccc(Cl)c(S(=O)(=O)N2CCOCC2)c1)c1ccccn1 | . | -2.9 | 2.5 | -1.0 | -3.2%
CN(C)C1NC(=O)c2cc(-c3ccccc3)sc2N1 (stereo not given) | -39.3 | -2.1 | 1.7 | 0.3 | 6.0% | Arbovirus inh repeat=-1.4
CSCC[C@H](NC(=O)[C@H]1CC[C@H](CNC(=O)[C@@H](N)Cc2ccccc2)CC1)C(=O)O | . | 2.4 | . | -9.7 | .

Overlap with the part before: two compounds; new compounds follow.
SMILES | YopH inh | RecA intein inh | Arbovirus inh | Mtb betalactam | Mtb H37Rv | others
CN(C)C1NC(=O)c2cc(-c3ccccc3)sc2N1 (stereo not given) | -39.3 | -2.1 | 1.7 | 0.3 | 6.0% | Arbovirus inh repeat=-1.4
CSCC[C@H](NC(=O)[C@H]1CC[C@H](CNC(=O)[C@@H](N)Cc2ccccc2)CC1)C(=O)O | . | 2.4 | . | -9.7 | .
CC(C)Cc1nc2sc3c(=O)n(N)cnc3c2c2c1COC(C)(C)C2 | -32.8 | 0.0 | 3.5 | -6.9 | -2.4%
CS(=O)(=O)Nc1ccc(C2=NN(C(=O)C3CCCCC3)C(c3cccs3)C2)cc1 (stereo not given) | -24.4 | 6.1 | 13.7 | 21.0 | 20.9%
CCOC(=O)N1CCN(C(=O)c2cccc(S(=O)(=O)Nc3ccc(Br)cc3)c2)CC1 | . | -0.6 | . | -8.4 | .
O=C(CSc1nncs1)Nc1cc(-c2ccccc2)nn1-c1ccccc1 | -14.2 | 0.1 | 16.0 | 3.3 | -2.0%
O=C(NCc1ccccc1F)C1CCCN1S(=O)(=O)c1ccc(F)cc1 (stereo not given) | . | 0.8 | . | -8.3 | .
COc1ccc(-c2c(C#Cc3ccccc3)c3ccccc3n2C)cc1 | . | 4.7 | . | 84.1 | .
Cc1ccc(OCCNC(=O)CN2C(=O)NC3(CCCC3)C2=O)cc1 | . | -0.4 | . | 1.9 | .
O=C(CSC1=NS(=O)(=O)c2cc(F)ccc2N1)NCCc1ccccc1 | . | -1.9 | . | -9.8 | .
CC(=O)Nc1ccc(NC(=O)CSc2ccc(-c3cccnc3)nn2)cc1 | . | -0.5 | . | 1.6 | .
CC[C@H](C)/C=C(C)/C=C/C(=O)Cc1cc(O)c(C)c(O)c1C=O | . | -15.6 | . | -4.4 | -14.5%
Cc1ccc(S(=O)(=O)N(Cc2cccc(C(F)(F)F)c2)C(=O)N2CCN(C)CC2)cc1 | . | -2.3 | . | -2.6 | .
CCOC(=O)C(C)Sc1ncc(OC)c(=O)[nH]1 (stereo not given) | -34.9 | 2.5 | 3.3 | 3.9 | -12.9%
O=C(Nc1cccc(F)c1)Nc1ccc2c(c1)CCC2 | . | -0.7 | . | 2.4 | .
COc1ccc(CNC(=O)[C@H](C)NC(=O)C2CCN(S(=O)(=O)c3ccc(F)cc3)CC2)cc1 | . | -0.8 | . | 4.7 | .
COc1ccccc1CNn1c(-c2cccc(C)c2)nc2ccccc2c1=O | 6.9 | 9.1 | -12.4 | -0.4 | -1.3%
NC(=O)c1c(-c2ccc(Cl)cc2Cl)csc1NC(=O)Cc1ccccc1 | -34.8 | 0.2 | 4.8 | -1.0 | 5.4%
CCOC(=O)c1sc2nc(-c3ccco3)c3c(c2c1N)CC(C)(C)OC3 | . | -53.9 | . | ? | 39.1%
CCCCC(CC)C(=O)N1CCN(C(=O)c2ccco2)CC1 (stereo not given) | . | 6.8 | 14.0 | -4.8 | 3.6%
COC(=O)c1cn(C(=O)c2ccc(Br)o2)c2ccccc12 | -18.3 | 19.4 | -0.3 | -1.1 | -4.4% | Arbovirus inh repeat=2.2
Cc1nc(N2CCCC2)c2nnn(Cc3ccccc3Cl)c2n1 | -10.4 | 2.4 | 5.9 | 68.2 | 7.6%
CC(C)c1ccc(O)c(NC(=S)NC(=O)CCc2ccccc2)c1 | . | -2.1 | -11.6 | -1.3 | ?
COc1cccc(C2=NN(S(C)(=O)=O)C(c3cccs3)C2)c1 (stereo not given) | . | 0.7 | 6.2 | -8.5 | -6.2%
CCOc1cc(C(=O)NCCOC)cc(OCC)c1OCC | -46.2 | 1.9 | 2.9 | -6.2 | -2.8%
CCOC(=O)c1ccc(NC(=O)C(CC)(CC)C(=O)OCC)cc1 | -43.4 | 0.4 | 0.5 | -1.9 | 20.4%
O=C(c1ccc(Cl)s1)N1CCOCC1 | -37.0 | 0.0 | 2.4 | -12.3 | -6.3%
CC(C)(C)NC(=O)COc1ccc(CNCc2cccs2)cc1 | -48.9 | 0.1 | 3.2 | -4.1 | -16.4%
